# From PubChem
# KCNQ2 enhance: enhances the rat KCNQ2 potassium channel. CHO-K1 KCNQ2, FluxOR thallium flux fluorescence; stronger effect = higher value. 310,000 compounds, 0.54% hits. B-score at 10 µM. AID 2239;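 active = fluorescence ratio B-score at least 3 SD of library B-scores, with initial fluorescence B-score within 3 SD, cut at about 5.3 in these data; same plate scores as AID 2156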;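 also: B-score of peak minus minimum over baseline fluorescence ratio after K+ and Tl+ stimulus; positive B-score means potentiation of KCNQ2 with more thallium influx and brighter signal; only the inactives scoring about 0 or higher are listed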
# Target sequence (O88943 whole entry, looked up): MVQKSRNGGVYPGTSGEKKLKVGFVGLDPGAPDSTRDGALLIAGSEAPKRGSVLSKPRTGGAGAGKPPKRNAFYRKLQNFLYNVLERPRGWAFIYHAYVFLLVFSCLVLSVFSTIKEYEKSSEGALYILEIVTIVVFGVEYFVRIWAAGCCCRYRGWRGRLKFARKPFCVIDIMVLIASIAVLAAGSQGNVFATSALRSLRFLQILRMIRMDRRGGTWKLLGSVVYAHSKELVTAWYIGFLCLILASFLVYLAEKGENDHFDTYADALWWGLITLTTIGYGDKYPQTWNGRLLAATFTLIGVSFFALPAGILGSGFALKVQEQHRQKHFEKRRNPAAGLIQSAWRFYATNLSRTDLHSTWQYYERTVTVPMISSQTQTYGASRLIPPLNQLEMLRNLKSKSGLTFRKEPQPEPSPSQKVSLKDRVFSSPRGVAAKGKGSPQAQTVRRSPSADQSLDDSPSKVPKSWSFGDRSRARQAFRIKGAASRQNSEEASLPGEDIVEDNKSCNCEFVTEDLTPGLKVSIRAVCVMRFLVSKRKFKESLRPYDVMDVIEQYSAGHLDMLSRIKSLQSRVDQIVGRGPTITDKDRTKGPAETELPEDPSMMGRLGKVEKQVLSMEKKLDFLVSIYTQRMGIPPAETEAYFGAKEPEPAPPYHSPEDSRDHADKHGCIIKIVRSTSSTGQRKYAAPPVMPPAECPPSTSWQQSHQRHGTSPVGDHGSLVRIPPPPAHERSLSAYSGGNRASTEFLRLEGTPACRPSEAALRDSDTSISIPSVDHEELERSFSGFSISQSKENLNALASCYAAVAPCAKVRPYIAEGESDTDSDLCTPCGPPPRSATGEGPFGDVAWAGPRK
# KCNQ2 enhance baseline: second read-out of KCNQ2 enhance, no call of its own (marks repeat the call); B-score; compound at 10 µM; measured here: initial fluorescence intensity artifact check;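 brightness before thallium and not channel activity; 0 = typical well and far values either way flag optical interference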
# * hit, by the source's call; . = no result given. Only part of the results is shown. The share of hits here may be higher or lower than overall.
# The opening 2 compounds, to show the layout:
KCNQ2 enhance baseline	KCNQ2 enhance	smiles
0.06	0.98	COc1ccc(S(=O)(=O)N(CC(=O)Nc2ccc(S(=O)(=O)N3CCOCC3)cc2)Cc2ccc(F)cc2)cc1
0.85	0.51	Cc1nn(Cc2ccccc2)c(Cl)c1C(=O)NC(C)(C)C

# The list itself (from the top)
KCNQ2 enhance baseline	KCNQ2 enhance	smiles
0.06	0.98	COc1ccc(S(=O)(=O)N(CC(=O)Nc2ccc(S(=O)(=O)N3CCOCC3)cc2)Cc2ccc(F)cc2)cc1
0.85	0.51	Cc1nn(Cc2ccccc2)c(Cl)c1C(=O)NC(C)(C)C
1.2	0.35	O=C(NCCN=C1NS(=O)(=O)c2ccccc21)c1ccc(S(=O)(=O)N2CCOCC2)cc1
-2.4	1.9	CCc1ccc(Oc2coc3cc(O)ccc3c2=O)cc1
1	0.89	CCC(=O)Nc1cccc(NC(=O)c2ccc3c(c2)OCO3)c1
0.05	0.66	CC(C)(C)c1ccc(C(CC(=O)O)NS(=O)(=O)Cc2ccccc2)cc1 (stereo not given)
0.55	1.1	CC(OC(=O)Cn1[nH]c(=O)c2ccccc2c1=O)C(=O)NC1(C#N)CCCCC1 (stereo not given)
0.66	2.7	CCC(=O)Nc1nc(-c2ccc3c(c2)OCCO3)cs1
-0.4	0.74	O=C(NCc1ccccn1)c1nc(-c2ccc(C(F)(F)F)cc2)no1
-0.85	0.19	CCN(CC)C(=O)CN(c1cccc(Br)c1)S(C)(=O)=O
3	0.08	Cc1ccc(-n2nc3c(c2NC(=O)c2ccc4c(c2)OCO4)CS(=O)(=O)C3)c(C)c1
1.5	1.1	CN(C)Cc1cc(CN(C)C)c(O)c(CCc2ccccc2)n1
-0.35	0.49	CC(=O)OCC1CCCC2=C(C)C(=O)CCC21COC(C)=O (stereo not given)
1.2	1.1	CCN1CCN(c2nc(SC)nc3sc4c(c23)CC(C)(C)OC4)CC1
1.4	0.75	Cc1cc(C)n(-c2ccc(C(=O)NC3=NCCS3)cc2)n1
-1.7	0.63	CCOC(=O)C(Cc1ccccc1)(NC(C)=O)C(=O)OCC
0.14	0.82	Cc1nnc(NC(=O)c2ccc(S(=O)(=O)N3CCOCC3)cc2)s1
-0.4	0.1	CCNC(=O)C/C(C)=N/NC(=O)C12CC3CC(CC(C3)C1)C2
-0.32	0.24	Clc1ccc2scc(CN3CCCC3)c2c1
-0.11	0.22	CN(C)c1ccc(N2C(=O)CC(Sc3ccccc3C(=O)O)C2=O)cc1 (stereo not given)
-1.9	1.1	O=C(Cn1nc(Cl)nc1Cl)c1ccc([N+](=O)[O-])cc1
0.27	0.1	COC(=O)c1cc2cc(NS(=O)(=O)c3ccc(C)cc3)ccc2s1
2.4	0.63	O=C(NCCN1C(=O)C2C3C=CC(C3)C2C1=O)Nc1ccccn1 (stereo not given)
1	0.02	CCn1ccc2c(OCC(=O)NCCc3ccc(OC)c(OC)c3)cccc2c1=O
-1	1.4	Brc1ccc(N/N=C(/N=Nc2nn[nH]n2)c2ccccc2)cc1
-0.13	0.65	CCC(=O)NC(=S)Nc1ccc(NC(=O)c2ccc(C)c([N+](=O)[O-])c2)cc1
0.57	1.6	Cc1ccc(-c2ccc(=O)n(CCC(=O)N3CCN(Cc4ccccc4)CC3)n2)cc1
0.19	0.04	Cc1ccc(S(=O)(=O)N2CCN(C(=O)C(C)Cn3nc(C)c(C)c3C)CC2)cc1 (stereo not given)
-2	0.98	O=C(Nc1ccnc(-c2ccncc2)n1)c1cccs1
-1.4	0.16	CC1(C)C(=O)OC(c2cccc([N+](=O)[O-])c2)C2(CCCCC2)C1=O (stereo not given)
-1.8	1.4	O=C(CSc1nc(=O)n2ccccc2n1)NCc1ccc(F)cc1
0.41	1.2	Cc1ccccc1NCC(=O)N/N=C/c1ccc([N+](=O)[O-])cc1
-0.41	2.1	O=C(O)COc1ccc2c3c(c(=O)oc2c1)CCCC3
-0.44	1.7	CCCCN(C)CCCNC(=O)CN1C(=O)COc2ccc(S(=O)(=O)N3CCOCC3)cc21
-1.7	0.12	N#Cc1c(NC(=O)CSCC(=O)O)sc2c1CCCC2
-0.08	0.92	Cc1ccccc1-n1c(SCC(=O)N/N=C/c2ccccc2OCC(=O)O)nc2ccccc2c1=O
0.12	1.2	COc1ccc(C(=O)COc2ccc(F)cc2)c(O)c1
0.5	0.15	O=C1CC(NCCc2ccccc2)C(=O)N1CCc1ccccc1 (stereo not given)
-0.09	1.3	Oc1ccc(-c2cn3ccccc3n2)cc1O
-0.93	1.1	Cc1ccc2nc(-c3ccc(NC(=O)CN4CCN(c5ccccn5)CC4)cc3)sc2c1
-0.07	0.1	CN(C)/C=C1\C(=O)N(C)N=C1C(F)(F)F
-0.07	0.3	COc1cc(C2NC(=O)NC3=C2C(=O)OC3)cc(OC)c1OC (stereo not given)
0.73	1.1	COc1ccc2cc(S(=O)(=O)c3ccccc3)c(=O)oc2c1
1	0.28	COc1ccc(CCC(=O)Nc2cccc(S(=O)(=O)N(C)C)c2)cc1OC
1.1	0.61	CN(C)/C=N/c1nc2ncc(-c3ccc(Cl)cc3)c(/N=C/N(C)C)n2n1
-1.8	0.55	O=C(Nc1cccc(C(F)(F)F)c1)C(=O)N1CCCCC1
0.41	0.05	CC(=O)c1ccc(OCC(=O)Nc2ccccc2C(=O)NC2CC2)cc1
1.7	0.01	O=C(CN1C(=O)c2ccccc2C1=O)Nc1nnc(C2CCCO2)s1 (stereo not given)
0.02	1.4	COc1cc(S(=O)(=O)n2cnc(C)c2)ccc1Br
0.21	0.77	CCOc1ccc(NC(=O)N(CC(C)C)CC(C)C)cc1

# Further structures follow.
KCNQ2 enhance baseline	KCNQ2 enhance	smiles
-0.23	1.1	O=C(N/N=C/c1cccn1-c1ccc(O)cc1)c1cccc2ccccc12
1.6	0.57	CN(C)S(=O)(=O)c1cccc(NC(=O)COC(=O)COc2ccccc2[N+](=O)[O-])c1
-1.9	0.46	Fc1ccc(Nc2c3c(nc4ccccc24)CCC3)cc1
0.87	0.58	NC(=O)CC(NC(=O)Cc1cccc2ccccc12)c1ccc(NCC2CC2)c([N+](=O)[O-])c1 (stereo not given)
-0.05	0.41	CCOc1ccc(-c2nnc(SCc3nnc(-c4ccccc4)o3)n2-c2ccccc2F)cc1
1.5	1.4	O=c1c(Cc2ccccc2)c(O)nc2n1CCCS2
-0.57	0.44	CCC(C)C(=O)N1CCc2cc(-c3csc(N)n3)ccc21 (stereo not given)
-0.34	0.23	COc1ccc(NC(C)=O)cc1NC(=O)CN1CCN(S(=O)(=O)c2ccc(C(C)C)cc2)CC1
-2.5	1.2	COc1ccc(C)cc1NC(=O)CCN1CCN(c2ccccc2)CC1
0.27	0.57	Cn1cc(CCNC(=O)C2CCC(=O)N(CCc3ccc(Cl)cc3)C2)cn1 (stereo not given)
1.7	2	C=CCn1c(=O)/c(=C2/Sc3cc(OC)ccc3N2C)s/c1=C1\C(=O)N(CC)C(=S)N1C
-0.36	0.57	CC1Cc2cc(/C(O)=C3/C(=O)C(=O)N(CCN4CCOCC4)C3c3cccc(O)c3)ccc2O1 (stereo not given)
-0.33	0.77	CC1=Nc2ccccc2/C1=C/c1sc(=O)n(CC(=O)N2CCCC2)c1O
0.85	0.31	COc1ccc(/C(O)=C2\C(=O)C(=O)N(Cc3ccco3)C2c2cc(OC)ccc2OC)cc1 (stereo not given)
-1.5	0.04	O=S(=O)(c1ccc2[nH]ccc2c1)N1CCCCCC1
-0.32	1.9	O=C(Nc1cccc(Cl)c1Cl)c1ccncc1
-1.5	1.9	O=C(NCCc1ccccc1F)C(=O)Nc1nccs1
0.01*	24*	CCCCCCCCC/C(=N\O)c1ccccn1
.	0.58	CC(Sc1ccc2ccccc2n1)C(=O)O (stereo not given)
0.65	1.2	Cc1ccc(NC(=O)Nc2cccc(C)n2)cc1
-0.57	1.7	Cc1ccc(CNC(=O)NCc2ccccc2)cc1
-0.03	0.2	O=C1CC(c2cccc([N+](=O)[O-])c2)c2ccc3ccccc3c2N1 (stereo not given)
2.8	4.4	O=C(CSc1nccc(-c2cccs2)n1)Nc1ccc(F)c(Cl)c1
-0.63	0.01	Cc1ccc(C(=O)COC(=O)CCN2C(=O)C3C4CC(C(Br)C4Br)C3C2=O)cc1 (stereo not given)
-1.3	0.15	COc1ccccc1Oc1ccc2c(c1)C(=O)N(CC(=O)O)C2=O
-0.06	0.56	CCn1cc(C2=NOC(C(=O)Nc3c(C)nn(Cc4ccc(F)cc4)c3C)C2)c(C)n1 (stereo not given)
-2.3	0.17	O=C1CC(c2ccc(F)cc2)Cc2nc(NCC3CCCO3)ncc21 (stereo not given)
-0.08	0.63	C=C(C)CN(CC)C(=O)CSc1nc(O)cc(=O)n1C1CCCC1
-1.3	0.3	Cc1cc(N=Nc2ccc3ccccc3c2)ccc1O
-1.4	0.22	Cc1cc(C(=O)CC#N)c(C)n1CC(F)(F)F
3	0.95	COc1ccc(CNc2cc(C)nc3ccc(OC)cc23)cc1
0.29	0.95	CN(C(=O)Cn1cc(C(F)(F)F)ccc1=O)c1c(N)n(Cc2ccccc2)c(=O)[nH]c1=O
0.08	0.56	COc1cccc(-c2nc(N3CCCC3)c3ccccc3n2)c1O
0.41	1.5	Clc1ccccc1-c1nn2c(Cn3cnc4ccccc43)nnc2s1
-1.9	0.65	Cc1ccc(Cl)cc1N1CCN(C(=O)Cc2csc(Nc3nc(=S)[nH]c4ccccc34)n2)CC1
0.18	0.89	N#CCC(=O)Nc1ccc(C(=O)Nc2cccc(S(N)(=O)=O)c2)cc1
-1.4	0.61	COc1ccc(NC(=O)CSc2nnc(-c3ccncc3)n2C)cc1
0.01	0.01	COc1cc(NC(C)CCCN)c2ncccc2c1Oc1ccccc1 (stereo not given)
-0.74	1.5	COc1ccc(Cn2c(=O)oc3ccccc32)cc1F
1.1	0.14	CSc1ccc(C(=O)N2CCC(n3nccc3NC(=O)C3CC3)CC2)cc1
0.78	0.37	Cc1cccc(C)c1NC(=O)CS(=O)CC(=O)NC1CCN(Cc2ccccc2)CC1 (stereo not given)
1.8	0.36	Cc1cc(Nc2cccc(Cl)c2C)n2ncnc2n1
1.6	0.44	CCOC(=O)c1csc(COc2ccccc2Cl)n1
0.84	0.87	O=C(CC12CC3CC(CC(C3)C1)C2)NCO
-0.02	0.37	CCOC(=O)c1c(C2CC2)csc1NC(=O)COC(=O)c1cnc(Cl)c(Cl)c1
0.23	1.3	CNC(=O)c1ccc(Nc2nc(-c3ccccc3)nc3ccccc23)cc1
-0.02	1.4	O=C(c1ccc(F)cc1)C1CCN(C(=O)N2CCOCC2)CC1
-1.6*	5.8*	O=C(NC(=S)Nc1ccc(N2CCCCC2)cc1)c1cccs1
-3.4	1.1	COc1cccc(CNC(=O)COC(=O)C2CC3CCCC(C2)C3=O)c1 (stereo not given)
0.15	0.47	Cc1ccc(CNC(=O)/C=C/c2c(Cl)cccc2Cl)cc1

# Reprinted at random: 4 entries already listed
KCNQ2 enhance baseline	KCNQ2 enhance	smiles
-0.02	1.4	O=C(c1ccc(F)cc1)C1CCN(C(=O)N2CCOCC2)CC1
-1.9	0.65	Cc1ccc(Cl)cc1N1CCN(C(=O)Cc2csc(Nc3nc(=S)[nH]c4ccccc34)n2)CC1
0.01	0.01	COc1cc(NC(C)CCCN)c2ncccc2c1Oc1ccccc1 (stereo not given)
3	0.95	COc1ccc(CNc2cc(C)nc3ccc(OC)cc23)cc1

# Following part
KCNQ2 enhance baseline	KCNQ2 enhance	smiles
-0.92	1.1	O=C(/C=C/c1ccco1)Nc1ccccn1
-0.14	0.73	O=C(NC12CC3CC(CC(C3)C1)C2)c1cc([N+](=O)[O-])ccc1Cl
-0.59	0.36	O=C(c1ccccc1)N(c1ccccc1)C1C=CS(=O)(=O)C1 (stereo not given)
0.24	0.58	COC(=O)c1ccccc1NC(=O)Nc1cc(C)cc(C)n1
0.76	1.4	COc1cc(S(=O)(=O)N2CCCCC2)ccc1NC=O
-0.89	0.02	COc1ccc(N2CCN(C(=O)c3ccc(F)cc3)CC2)c([N+](=O)[O-])c1
0.47	0.46	Clc1cccc(Nc2c3c(nc4ncnn24)CCC3)c1
0.94	0.64	Cc1sc(NC(=O)c2ccc3ncsc3c2)c(C(N)=O)c1C
2.4	0.58	COC(=O)/C(C#N)=C(/Nc1ccc(F)c(Cl)c1)C(F)(F)F
0.38	0.3	O=C(NC1CCCCC1)C1CCN(c2nnnn2-c2ccccc2)CC1
-0.05	3	CC(C)c1c(C(=O)N/N=C/c2cccnc2)nnn1-c1nonc1N
0.37	0.92	COc1ccc(C(=O)Nc2nc(C)c3cc4c(cc3n2)OCO4)cc1
-0.11	0.98	COc1ccc(/C(O)=C/c2nc3ccc(C(=O)NCCc4cccc(C)c4)cc3[nH]c2=O)cc1OC
-1.6	0.01	C=CCn1c(=O)/c(=C/c2ccc(F)cc2)s/c1=C(\C#N)c1nnc2n1CCCCC2
-0.37	0.62	COc1ccc(CC2(CO)CCN(Cc3ccncc3)CC2)cc1
-0.88	0.17	Cc1ccc(C)c(N(CC(=O)NC2CCCC2)C(=O)CCC(=O)Nc2nccs2)c1
-0.65	1.2	COc1ccccc1C(=O)Nc1ccnn1C1CCN(CC2CC=CCC2)CC1 (stereo not given)
0.12	0.84	O=S(=O)(Nc1cccc(-c2ccc3nncn3n2)c1)c1ccc(Cl)s1

# Compound profiles, as listed above. Screens in order: KCNQ2 enhance baseline, KCNQ2 enhance
# Clc1cccc(Nc2c3c(nc4ncnn24)CCC3)c1 reads 0.47, 0.46
# Cc1ccc(C)c(N(CC(=O)NC2CCCC2)C(=O)CCC(=O)Nc2nccs2)c1 reads -0.88, 0.17
# COc1ccc(C(=O)Nc2nc(C)c3cc4c(cc3n2)OCO4)cc1 reads 0.37, 0.92
# O=S(=O)(Nc1cccc(-c2ccc3nncn3n2)c1)c1ccc(Cl)s1 reads 0.12, 0.84
# COc1ccc(N2CCN(C(=O)c3ccc(F)cc3)CC2)c([N+](=O)[O-])c1 reads -0.89, 0.02
